Assay outcomes deposited in PubChem by several laboratories.
eIF4H FP inh: inhibitors of RNA binding by human eIF4H; Q15056; eIF4H fluorescence polarization binding assay; inhibition, % at 35 µM; 0.94% of 290,000 active;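 active = 50% or more with normal probe brightness, or confirmed in later tests; inconclusive = above 50% with abnormal brightness, or retests that disagree; inactive = below 50% or failed in later tests; about a fifth of its hits are not listed in these tables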;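 note: calls also rest on retests at 20 µM and on dose response follow-up; 0% = protein and probe with vehicle and 100% = probe without protein; strong numbers were not always called active; many hits fall short of the cut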
HIV Env fusion: HIV envelope-mediated fusion inhibition; HeLa-JRFL Env/CEM21 cell fusion, luciferase; inhibition, % at 12.3 µM; 1.1% of 360,000 active; AID 651610;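 active = mean replicate inhibition score of at least 50 and every replicate individually at or above 50; inconclusive = only one of the two criteria met; inactive = mean below 50 and not all replicates reaching 50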;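 note: 0% = plate neutral controls and 100% = maraviroc near 300 nM; one replicate is shown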
Rce1 inh: inhibitors of yeast Ras-converting enzyme; calls only; yeast membranes, quenched prenylated peptide cleavage fluorescence; 0.27% of 290,000 active; Q03530;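 active = fall in fluorescence gain of 50% or more versus controls, with final raw signal at or below 3038400; inconclusive = same 50% fall but final raw signal above 3038400; inactive = fall in fluorescence gain under 50%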;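 note: plate controls were neutral control wells for no effect and wells lacking membranes for full effect; tested at 10 µM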
PABP FP inh: blocks human PABP binding to poly(A) RNA; 1% of 290,000 active; P11940; AID 2014; inhibition, % at 35 µM; fluorescence polarization;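 active = 50% or more with normal probe brightness, or confirmed in later tests; inconclusive = above 50% with abnormal brightness, or retests that disagree; inactive = below 50% or failed in later tests; about a fifth of its hits are not listed in these tables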;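 note: calls also rest on retests at 20 µM and on dose response follow-up; controls were probe without protein and protein plus probe with vehicle; some compounds called inactive have numbers as strong as hits; many hits fall short of the cut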
Target sequence (P11940 whole entry, looked up): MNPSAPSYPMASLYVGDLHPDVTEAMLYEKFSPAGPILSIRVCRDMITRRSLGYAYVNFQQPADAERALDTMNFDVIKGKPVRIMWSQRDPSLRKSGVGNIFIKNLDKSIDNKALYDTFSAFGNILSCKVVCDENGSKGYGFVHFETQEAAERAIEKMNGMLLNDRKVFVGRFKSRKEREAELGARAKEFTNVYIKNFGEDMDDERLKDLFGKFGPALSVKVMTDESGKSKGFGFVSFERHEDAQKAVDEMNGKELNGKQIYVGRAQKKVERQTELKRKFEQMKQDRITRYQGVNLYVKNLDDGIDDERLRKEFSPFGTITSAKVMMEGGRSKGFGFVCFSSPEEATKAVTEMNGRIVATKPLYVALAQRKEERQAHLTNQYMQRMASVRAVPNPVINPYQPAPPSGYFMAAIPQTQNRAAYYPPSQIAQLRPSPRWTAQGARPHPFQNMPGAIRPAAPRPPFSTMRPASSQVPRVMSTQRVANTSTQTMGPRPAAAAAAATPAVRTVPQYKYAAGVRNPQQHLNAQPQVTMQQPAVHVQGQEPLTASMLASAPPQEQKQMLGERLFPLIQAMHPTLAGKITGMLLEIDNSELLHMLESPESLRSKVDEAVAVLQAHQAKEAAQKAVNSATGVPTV
CSC inhib: cancer stem cell inhibition | cancer stem cell-like cells viability, luminescence | inhibition, % at 7.5 µM | 1.1% of 300,000 active;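 active = mean at 75% or more and at least half the replicates too; inconclusive = mean and replicates disagree; tested in HMLE shEcad cells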;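 note: 0% = median of negative and 100% = median of positive control wells; the first replicate is given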
Yeast UUG start: yeast start codon fidelity modulation | 0.13% of 350,000 active | activity score, % at 18.7 µM | S. cerevisiae UUG-firefly luciferase reporter, luminescence/redox ratio;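 active = replicate mean at a twofold rise or more, about +100% in these data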;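 note: firefly luciferase made from a UUG start codon reports start codon fidelity; reporter light over untreated wells divided by growth signal over untreated wells; some hits fall short of that in this replicate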
MT1-MMP act inh: blocks activation of human MT1-MMP. HT1080 RFP-PRO-GFP cells, GFP/RFP ratio fluorescence, overnight; percent of plate control window, DMSO zero. GFP/RFP ratio change, % at 20 µM. 0.061% of 360,000 active. AID 651647;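 active = GFP/RFP ratio change of at least 30% with cell ATP level not reduced by more than half and red fluorescence within 50% of control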; note: strong numbers were not always called active
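Assay system: HT1080 RFP-PRO-GFP cells. Benchmarks: DMSO vehicle wells and RFP-L50D-GFP reporter cell wells. Times: overnight cell settling, then overnight compound exposure, 37 °C, 5% CO2. Compound: 20 µM single dose, 1% DMSO. Read-out basis: GFP/RFP fluorescence ratio.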
eIF4H FP inh retest: second read-out of eIF4H FP inh, no call of its own (marks repeat the call); inhibition, %; compound at 20 µM; confirmation average;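 mean of two retest wells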
PABP FP inh retest: recorded beside PABP FP inh, whose call it bears; inhibition, %; compound at 20 µM; confirmation repeats;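 mean of two retest wells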
MT1-MMP act inh RFP: also measured in MT1-MMP act inh; calls as there; RFP signal change, %; measured here: RFP expression control read;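 0 = vehicle wells; hits needed this value within 50% of zero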
Numbers without * were called inactive; i = inactive; ? = inconclusive; / = not tested or not shown; & = joins results of further samples.

SMILES	eIF4H FP inh	HIV Env fusion	Rce1 inh	PABP FP inh	CSC inhib	Yeast UUG start	MT1-MMP act inh	MT1-MMP act inh RFP	others
COc1ccc(C(=O)CC(=O)C(=O)Nc2cc(Cl)c(OC)cc2OC)cc1	2	7	i	6	-2	/	-1	3
CC1CN/C(=C\C(=O)c2ccc(Br)cc2)C(=O)N1 (centres undefined)	13	/	i	10	0	-29	-1	-5
N#Cc1ccc2[nH]c(CO)c(-c3ccccc3)c2c1	-4	-54	i	-11	6	-21	-3	-2
O=C1CCc2ccc(NC(=O)C3CC3)cc2N1	1	6	i	11	-12	-8	5	3
CCOc1ccccc1NC(=O)CC1Nc2cc(C)c(C)cc2NC1=O (centres undefined)	-14	/	i	-8	10	2	6	2
CCOc1ccc(-n2c(N)c(-c3nc4ccccc4[nH]3)sc2=S)cc1	7	/	i	0	-3	0	7	4
CCOc1ccc(C(=O)O/N=C(\N)c2ccccn2)cc1	-13	63*	i	-2	-19	-90	4	1
COc1cccc(NC(=O)CNC(=O)c2ccccc2)c1	-7	/	i	9	3	-7	1	3
Fc1ccccc1/C=N/n1c(-c2cccnc2)n[nH]c1=S	-10	-2	i	-8	3	/	-2	4
CCOCCOC(=O)COc1ccc2c(-c3ccccc3)cc(=O)oc2c1	2	-15	i	-4	-11	/	-1	2
O=C(Nc1ccnn1C1CCN(Cc2ccccn2)CC1)c1cccc(F)c1	-4	6	i	-6	5	-18	4	7
COc1ccc(CNC(=O)c2cn(Cc3ccccc3F)c(=O)s2)cc1	/	16	/	/	/	-12	6	3
CCOC(=O)C1CCN(S(=O)(=O)c2ccc3c(c2)CCN3C(=O)C2CCC2)CC1	-4	/	i	-8	-13	0	5	-7
O=C(Cn1ncc2c3ccccc3n(Cc3ccccc3F)c2c1=O)N1CCN(c2ccccn2)CC1	-11	27	i	-4	-3	-7	-5	-8
COC(=O)C(C(=O)Nc1ccccc1C)C1CCCCCC1 (centres undefined)	-2	22	i	-7	3	/	0	2
COc1cc(OC)cc(-c2sc3ccc(OC)cc3c2C#CC(C)(C)O)c1	/	-28	/	/	-6	-10	4	2
CCOc1cc(NC(=S)NCCCN2CCOCC2)c(OCC)cc1NC(=O)C1CCCCC1	-8	9	i	-1	-2	/	0	2
N#CCCN(Cc1ccncc1)C(=S)NC1CC2C=CC1C2 (centres undefined)	-8	4	i	4	-10	-14	3	-1
Cc1cccc(-n2c(O)c(C=Nc3ccc4c(c3)OCO4)c3ccccc3c2=O)n1	39	-58	i	?	2	-10	-3	-3
COc1ccc(NS(=O)(=O)c2cccc(C(=O)N/N=C/c3cn(-c4ccccc4)nc3-c3ccccc3)c2)cc1	2	-1	i	8	7	-11	-3	-6
O=C(CSc1nc2ccsc2c(=O)n1Cc1ccc(C(=O)O)cc1)NCC1CCCO1 (centres undefined)	-6	-3	i	-5	-4	-4	4	8
Cc1cccc(N2N=C(C(=O)Nc3nc(C)cs3)CCC2=O)c1	1	17	i	14	-10	/	11	4
Cc1nnc(NC(=O)CSc2nnc(-c3ccco3)n2C(C)C)s1	60	5	/	7	-14	-4	-1	4	eIF4H FP inh retest=-6;PABP FP inh retest=1
COc1ccccc1-c1nnc(SCC(=O)N2CCCC2)o1	26	1	i	-2	2	-13	1	1
CCOC(=O)c1c2ccc(OCC(=O)N/N=C/c3ccc(Cl)cc3)cc2n2ccccc12	5	/	i	0	/	/	/	/
COc1ccccc1CN1C[C@@H]2C[C@@H](c3cccc(C)c3)N3CCC[C@@]23C1=O	-11	7	i	-15	-11	/	-3	-1
CCC(Oc1ccccc1)C(=O)NC1CCCCCC1 (centres undefined)	-8	-6	i	-6	-3	6	-1	-1
CCOc1ccccc1N(CC(=O)Nc1ccc(S(=O)(=O)N2CCOCC2)cc1)S(=O)(=O)c1ccc(Cl)cc1	-1	/	i	-3	4	/	0	1
CC(C)CC(=O)OC1C(N2CCOCC2)c2c(ccc(/C=C/C(=O)N3CCOCC3)c2O)OC1(C)C (centres undefined)	3	/	i	0	-21	8&2	0	0
COc1ccc(CCc2nnc(NS(C)(=O)=O)s2)cc1	-3	-73	i	-10	/	-8	-5	-3
O=C(CCNS(=O)(=O)c1ccc2[nH]c(=O)oc2c1)NCc1ccc(F)cc1	2	-12	i	-4	-16	2	9	-2
CCc1cccc(NC(=O)c2snc3c(=O)[nH]cnc23)c1	-6	/	i	1	-3	-4	4	5
O=C(NC1CCCCC1)c1ccc(CNc2ccccc2)o1	-6	38	i	0	-2	-1	4	2
CC(=O)Nc1ccc(OCc2ccc3c(c2)OCO3)cc1	-15	-11	i	-7	24	-25	0	-6
N/C(Cc1cccs1)=N\OC(=O)COc1ccc(Br)cc1	-8	/	i	-6	5	-11	0	-3
CCN(CC)c1ccc(C(=O)OCC(=O)Nc2cc3oc4ccccc4c3cc2OC)cc1	-6	-11	i	-23	/	-15	5	2
CCCCN1CC(CO)Oc2cccc(F)c2S1(=O)=O (centres undefined)	/	5	/	/	/	-2	0	-1
COCCn1c(SCC(=O)Nc2nc(C)cs2)nnc1C(C)C	-4	-8	i	3	-12	-14	2	2
CN1C(C(=O)NCc2ccccc2)CC2Cn3c(nc4ccccc43)C21 (centres undefined)	-3	12	i	2	2	-24	0	3
O=S(=O)(N1CCOCC1)n1nnc2ccccc21	-10	-19	i	0	-1	4	1	-1
COC(=O)C1=NN(c2ccccc2)C2(S1)SC(C(C)=O)=C(C)N2c1ccccc1 (centres undefined)	-6	3	i	-11	5	3	-1	0
NC(N)=NS(=O)(=O)c1ccc(NC(=S)NC(=O)c2ccc3c(c2)OCO3)cc1	-3	0	i	-9	-9	/	-2	-2
Cc1ccc(C(=O)Cn2c(C(=O)O)cc3ccccc32)cc1	-6	6	i	-1	-10	-11	-1	8
CON(c1nc(Cl)nc(N(C)C)n1)S(=O)(=O)c1ccccc1Cl	4	/	i	5	3	-13	6	4
CCCCCOC(=O)Cn1c(=O)oc2ccc(C)cc21	6	17	i	-1	-12	/	1	6
COc1cccc(NC(=O)Cc2nnc(SCCOc3ccccc3)n2C)c1	-2	/	i	12	7	-16	-4	-4
CCc1nc2ccc(C(=O)NCCc3ccccc3OC)cc2nc1CC	-17	-3	i	-6	7	10	-1	-2
Cn1c2c(c(=O)c3ccccc31)CCCC2	-4	-3	i	8	-8	-13	1	4

Eleven structures from above, sorted by number of heavy atoms, high to low:
SMILES	eIF4H FP inh	HIV Env fusion	Rce1 inh	PABP FP inh	CSC inhib	Yeast UUG start	MT1-MMP act inh	MT1-MMP act inh RFP	others
CCN(CC)c1ccc(C(=O)OCC(=O)Nc2cc3oc4ccccc4c3cc2OC)cc1	-6	-11	i	-23	/	-15	5	2
COC(=O)C1=NN(c2ccccc2)C2(S1)SC(C(C)=O)=C(C)N2c1ccccc1 (centres undefined)	-6	3	i	-11	5	3	-1	0
NC(N)=NS(=O)(=O)c1ccc(NC(=S)NC(=O)c2ccc3c(c2)OCO3)cc1	-3	0	i	-9	-9	/	-2	-2
CCc1nc2ccc(C(=O)NCCc3ccccc3OC)cc2nc1CC	-17	-3	i	-6	7	10	-1	-2
CN1C(C(=O)NCc2ccccc2)CC2Cn3c(nc4ccccc43)C21 (centres undefined)	-3	12	i	2	2	-24	0	3
COCCn1c(SCC(=O)Nc2nc(C)cs2)nnc1C(C)C	-4	-8	i	3	-12	-14	2	2
Cc1ccc(C(=O)Cn2c(C(=O)O)cc3ccccc32)cc1	-6	6	i	-1	-10	-11	-1	8
N/C(Cc1cccs1)=N\OC(=O)COc1ccc(Br)cc1	-8	/	i	-6	5	-11	0	-3
CCCCCOC(=O)Cn1c(=O)oc2ccc(C)cc21	6	17	i	-1	-12	/	1	6
O=S(=O)(N1CCOCC1)n1nnc2ccccc21	-10	-19	i	0	-1	4	1	-1
Cn1c2c(c(=O)c3ccccc31)CCCC2	-4	-3	i	8	-8	-13	1	4

Other compounds
SMILES	eIF4H FP inh	HIV Env fusion	Rce1 inh	PABP FP inh	CSC inhib	Yeast UUG start	MT1-MMP act inh	MT1-MMP act inh RFP	others
O=C(CSc1nnc(CNc2ccc(F)cc2)n1CC1CCCO1)N1CCOCC1 (centres undefined)	-8	-13	i	8	/	-19	-3	-3
CCCCN(C)C(=O)c1nc2ccccn2c1CN1CCN(c2ncccn2)CC1	-10	2	i	-6	-9	/	0	2
NC1=NC(=O)C2(COC(c3ccccc3Cl)OC2)S1 (centres undefined)	5	-16	i	5	-1	-18	-3	-3
N=c1oc2cc(O)ccc2cc1C(=O)Nc1ccccn1	?	/	/	0	2	/	/	/
COc1cc(C(=O)NCc2nnc(SCC(=O)c3ccc(Cl)cc3)o2)cc(OC)c1OC	6	6	i	3	-10	-3	2	-7
c1ccc(-n2nnnc2OCCOc2nnnn2-c2ccccc2)cc1	-5	3	i	6	-2	-6	-4	0
CC(C)c1ccc(NC(=O)C2CCN(S(=O)(=O)c3ccc4c(c3)NC(=O)CO4)CC2)cc1	-4	4	i	-2	-16	10	4	-6
CC1(C)SCC2C(=O)N3C(CSC3(C)C)C(=O)N21 (centres undefined)	9	-23	i	-2	2	-15	1	2
CSc1nc(C)c(CCOC(=O)c2cccc(Cl)c2)c(=O)[nH]1	-7	-32	i	-4	-9	/	0	0
CC(=O)Nc1ccc(NC(=O)c2ccccc2S(=O)(=O)c2ccc([N+](=O)[O-])cc2)cc1	-2	2	i	-2	-20	-11	1	-1
Cc1ccc(C)c(SCC(=O)NC2CCS(=O)(=O)C2)c1 (centres undefined)	/	-11	/	/	/	-8	0	2
Cc1ccc(CSc2nnc(-c3cccs3)n2C)cc1	3	/	i	22	-5	/	5	-5
O=c1c2ccccc2nc(-c2cccs2)n1-c1cccc2ccccc12	5	9	i	0	13	-14	-4	-9
C=CCOn1c(=O)c(-c2ccc(Br)cc2)[n+]([O-])c2ccccc21	6	11	i	0	-10	-17	1	3
COc1ccc(N2CCN(S(=O)(=O)CCNC(=O)c3ccco3)CC2)cc1	/	-3	i	/	-2	-21	2	1
CC(=O)c1cccc(NC(=O)c2ccc(N(C)S(C)(=O)=O)cc2)c1	-7	/	/	-3	-3	4	/	/
CCn1c(CC(=O)Nc2ccccc2)nnc1SCC(=O)N1CCOCC1	-9	6	i	1	-1	-14	-2	3
COc1ccc(C(=O)Nc2cc3c4c(c2)CC(=O)N4CCC3)cc1	/	2	i	/	2	1	-4	2
c1ccc(NC2=NCCN2CC2CCCCCC2)cc1	/	-16	/	/	-16	6	-2	4
C[C@@H]1CN([C@@H](C)CO)S(=O)(=O)c2ccc(Br)cc2O[C@H]1CN(C)C(=O)c1cccc(F)c1	/	7	/	/	/	26	0	0
